# Compound activity from PubChem.
# RE007 growth inh: less growth of the S. pombe RE007 Vpr strain. actives 0.21% (n = 360,000). S. pombe RE007 Vpr strain, BacTiter-Glo ATP luminescence, 24 h; control for the full effect not named in the record. Potency, µM (highest dose often 92.2 µM), for inactives: at the top dose activity change, negative = less growth; active = well fitted falling curve with a large enough effect; inconclusive = small, poorly fitted or top-dose-only effect; inactive = no such curve, though single readings can be large or run the other way;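 also: % is scaled to controls: 0 for no effect and ±100 for the full control effect; nearly all actives have a fitted effect of over 50% in size; the assay follows cell death caused by Vpr and the record does not say whether a fall means rescue or toxicity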
#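 Fission yeast RE007 carrying one integrated HIV-1 vpr copy, seeded at OD 0.01 in PMG+AL medium with 23 nL pinned compound. Grown 24 h at 30 degrees; viability read by BacTiter-Glo luminescence after 5 min.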
# Cruzain inh noDet: cruzain (T. cruzi) inhibition without detergent. Potency, µM, for inactives: max response, negative = inhibition, most hits filed as inhibitors. purified cruzain, Z-FR-AMC fluorescence, no detergent. P25779. actives 2.3% (n = 200,000);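 also: plate controls were enzyme without inhibitor for no effect and buffer without enzyme for full effect; nearly all actives have a fitted effect of over 40% in size; top concentration of the series not given in the record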
# Target sequence (P25779 123-467 limits assumed): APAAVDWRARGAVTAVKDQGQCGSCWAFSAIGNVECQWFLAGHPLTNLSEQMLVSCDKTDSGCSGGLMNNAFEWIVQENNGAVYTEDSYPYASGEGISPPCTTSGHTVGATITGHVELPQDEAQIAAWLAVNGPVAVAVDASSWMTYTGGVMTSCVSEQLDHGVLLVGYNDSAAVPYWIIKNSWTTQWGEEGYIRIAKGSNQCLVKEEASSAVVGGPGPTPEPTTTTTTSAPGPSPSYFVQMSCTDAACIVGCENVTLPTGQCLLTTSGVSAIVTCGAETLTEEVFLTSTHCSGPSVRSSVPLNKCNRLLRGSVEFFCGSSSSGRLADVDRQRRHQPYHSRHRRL
#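 Detergent-free condition (0.00005% Triton X-100) in acetate buffer pH 5.5 with DTT. 1.5 nM enzyme and compound were pre-mixed 15 min, then 2 uM Z-FR-AMC substrate added; reaction progress from fluorescence change between first and third reads (60 s).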
# LASV entry inh: Lassa virus entry inhibition | Lassa virus pseudotype entry inhibition, cell reporter; control for the full effect not named in the record | Potency, µM (top dose mostly 37.9 µM), inactives show top-dose activity change, negative = inhibition, actives largely listed as inhibitors | actives 1.2% (n = 300,000); active means well fitted inhibition curve with a large enough effect; inconclusive means small, poorly fitted or top-dose-only effect, or effect the other way; inactive means flat fitted curve, though single readings scatter; tested in HEK293 cells; also: % is scaled to controls: 0 for no effect and ±100 for the full control effect; nearly all actives have a fitted effect of over 50% in size; luciferase read-out
# Cruzain Triton: inhibitors of Trypanosoma cruzi cruzain with detergent; P25779; purified cruzain, Z-FR-AMC fluorescence, 0.01% Triton; Potency, µM, without a hit: max response, negative = inhibition, usual class: inhibitors; actives 0.43% (n = 200,000);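 also: plate controls were neutral wells for no effect and buffer without enzyme for full effect; nearly all actives have a fitted effect of over 40% in size; top concentration of the series not given in the record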
#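 In this qHTS format, compounds are incubated with 1.5 nM cruzain for 15 min at room temperature before 2 uM Z-FR-AMC is added. Release of AMC is followed at 360/450 nm, and progress is taken as the 60 s fluorescence difference.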
# SARS PLpro yeast: SARS-CoV PLP inhibition in yeast | Potency, µM (series often up to 32.9 µM), for inactives: at the top dose activity, positive = growth rescue | AID 485353 | S. cerevisiae expressing SARS-CoV PLpro, growth rescue; control for the full effect not named in the record | actives 0.19% (n = 330,000); active means well fitted rising curve with a large enough effect; inconclusive means small, poorly fitted or top-dose-only effect; inactive means no such curve, though single readings can be large or run the other way; also: 0% is about no effect; nearly all actives have a fitted effect of over 55% in size; growth read by luminescence after 48 h
# StopGo reporter: lowers the luciferase signal of an FMDV 2A StopGo reporter; actives 1.2% (n = 410,000); AID 1159524; Potency, µM (titrated, usually from 57.9 µM), for the others: top-dose signal change, negative = less light; human cells with a luciferase reporter of 2A StopGo recoding; control for the full effect not named in the record; active = well fitted falling curve with a large enough effect; inconclusive = small, poorly fitted or top-dose-only effect; inactive = no such curve, though single readings can be large or run the other way; tested in HEK293T cells; also: % is scaled to controls: 0 for no effect and ±100 for the full control effect; nearly all actives have a fitted effect of over 45% in size; luciferase light after 4 h
# NS1 function inh: inhibitors of influenza NS1 protein function; S. cerevisiae slowed by influenza A NS1, growth recovery by OD600; Potency, µM (titrated, usually from 46.1 µM), without a hit: at the top dose activity, positive = more growth; actives 0.4% (n = 270,000); AID 2326; active means well fitted rising curve with a large enough effect; inconclusive means small, poorly fitted or top-dose-only effect; inactive means no such curve, though single readings can be large or run the other way; also: nearly all actives have a fitted effect of over 50% in size
#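 Compounds were scored for reversing the slow growth caused by influenza A NS1 in S. cerevisiae, measured by optical density at 600 nm. Assay medium contained 2% galactose at pH 6.0; NS1-free yeast of the same strain were the positive control.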
# MARV entry inh: inhibitors of Marburg virus binding or cell entry | Marburg virus pseudotyped entry inhibition, cell reporter; control for the full effect not named in the record; about a third of the inactives were read at about 46 µM | actives 1.8% (n = 300,000) | Potency, µM (doses to about 37.8 µM), without a hit: top-dose activity change, negative = inhibition, hits mostly inhibitors; active = well fitted inhibition curve with a large enough effect; inconclusive = small, poorly fitted or top-dose-only effect, or effect the other way; inactive = flat fitted curve, though single readings scatter; tested in HEK293 cells; about a fifth of its hits are not listed in these tables; also: % is scaled to controls: 0 for no effect and ±100 for the full control effect; luciferase read-out
# The depositor's hits bear a star; ? = inconclusive; . = not tested or not shown; & = joins results of further samples; [ ] = another dose, or the depositor's remark. Unless noted, calls follow the shape of the dose curve; as a rule, active = well fitted curve in the direction sought with a large enough effect; inconclusive = small, poorly fitted or top-dose-only effect, or another doubt; inactive = no such curve, though single readings can be large; an effect the other way counts as inactive or inconclusive. Potency is read from the fitted curve at half-maximal effect.
SMILES,RE007 growth inh,Cruzain inh noDet,LASV entry inh,Cruzain Triton,SARS PLpro yeast,StopGo reporter,NS1 function inh,MARV entry inh
O=C(CN1CCC(C(O)(c2ccccc2)c2ccccc2)CC1)Nc1ccccc1,15%,-1%,?,-1.6%,2%,.,-4%,23µM*
Cc1cccc(C)c1-n1c(C)nn(CCOc2ccccc2)c1=O,0%,.,17%,.,0%,6%,-2%,-13%[46.1 µM]
O=C(N/N=C/c1ccc(OC(=O)c2ccccc2)cc1)c1ccc(CN2CCOCC2)cc1,16%,5%,-21%,-5.8%,0%,?,13%,?
COc1cccc(NC(=O)CSc2nccn2Cc2ccc3c(c2)OCO3)c1,.,4%,13%[46.1 µM],-1.1%,.,5%,.,.
O=C(CN1C(=O)COc2ccccc21)NCCN1CCCC1,12%,.,.,.,-8%,-6%,12%,.
c1ccc(Cc2nnc3sc(-c4ccco4)nn23)cc1,8%,-10%,.,-6.7%,0%,35%[activator],-44%,.
COc1ccc(C2CC(c3ccc(Br)cc3)=NN2C(=O)CN2CCCC2)cc1 (stereo not given),22%,.,?,.,0%,-23%,0%,?
CC(=O)Nc1ccc(S(=O)(=O)NCCC(=O)OCC(=O)NNC(=O)c2ccccc2)cc1,-7%,.,9%,.,4%,-4%,.,-15%[46.1 µM]
COc1cccc2c1CCC1=CC(=O)CCC12C (stereo not given),12%,.,?,.,.,-29%,.,0%
Cc1ccc2c(NC(=O)c3ccc(Br)o3)cccc2n1,2%,.,.,.,-4%,-3%,-16%,.
CCOC(=O)N1CCN(c2ncc3c(n2)CC(c2ccc(Cl)cc2)CC3=O)CC1 (stereo not given),.,-2%,?,-0.5%,.,?,.,-6%[46.1 µM]
COc1ccc2oc(C(=O)OCC(=O)NC(=O)c3ccccc3)c(C)c2c1,-1%,.,22%[46.1 µM],.,-5%,-17%,3%,3%[46.1 µM]
O=C(NC1CCc2ccccc21)c1cc(COc2c(F)cccc2F)on1 (stereo not given),1%,.,.,.,-5%,22%,0%,.
CC12CCC(=O)N1C(C(=O)NCCc1ccccc1)CS2 (stereo not given),10%,.,.,.,0%,25%,-29%,.
CC(C(=O)N1CCOCC1)(c1ccccc1)c1ccccc1,4%,-3%,37%[14.3 µM],3.0%,-2%,7%,13%,0%
CC(C)CN(C(=O)COC(=O)c1ccccn1)c1c(N)n(Cc2ccccc2)c(=O)[nH]c1=O,9%,.,?,.,-2%,-1%,.,-3%
CCCc1ccc2oc(C(=O)N3CCC(C(N)=O)(N4CCCCC4)CC3)c(C)c2c1,5%,.,.,.,7%,13%,12%,.
O=C(NCc1ccco1)c1cc2cc(Br)ccc2o1,?,.,.,.,-17%,16%,-29%,.
Cc1c(NS(=O)(=O)c2cc(C(=O)NCc3cccnc3)ccc2Cl)c(=O)n(-c2ccccc2)n1C,7%,.,18%[46.1 µM],.,0%,9%,.,?
Cc1cc(OCC(=O)Nc2cnn(CCCC(=O)O)c2)ccc1[N+](=O)[O-],4%,.,0%[46.1 µM],.,1%,-5%,.,7%[46.1 µM]
CCOC(=O)c1c(C)sc(-c2c(-c3ccc4c(c3)OCCO4)[nH]c3c2c(=O)[nH]c(=O)n3C)c1O,.,?,?,-5.3%,.,2%,.,-30%[46.1 µM]
O=[N+]([O-])c1ccc(Cl)c(S(=O)(=O)/N=C(/Nc2cccnc2)c2ccccc2)c1,1%,.,-2%,.,8%,-1%,.,-1%
O=C(CCc1nc2ccccc2c(=O)[nH]1)OCC(=O)N1CCN(S(=O)(=O)c2ccccc2)CC1,-4%,8%,-8%,6.4%,3%,-25%,-2%,5%&0%
CSc1ccccc1NC(=O)Cc1ccccc1[N+](=O)[O-],-13%,.,.,.,0%,4%,7%,.
Cc1ccccc1C(=O)Nc1cccc(NC(=O)Cn2cnc3c(=O)n(C)c(=O)n(C)c32)c1,2%,-26%,?,-1.0%,3%,-8%,-1%,?
Cc1cc(C)n(-c2cc(N3CCN(C(=O)c4ccccc4C)CC3)ccc2[N+](=O)[O-])n1,-12%,.,?,.,.,?,.,-25%[46.1 µM]
CN(CC(=O)NC1CCCCC1)S(=O)(=O)c1ccc(Br)s1,-11%,-2%,8%,7.8%,.,-10%,3%,18%
CC(C)(C)n1nc2c(c1NC(=O)c1ccc([N+](=O)[O-])cc1)CS(=O)(=O)C2,-2%,.,5%[46.1 µM],.,-1%,-8%,-1%,17%[46.1 µM]
Cc1ccnc(NC(=O)CCC(=O)N(CC(=O)NC2CCCCC2)CC2CCCO2)c1 (stereo not given),8%,9%,?,1.9%,3%,-3%,-4%,15%
CCOc1cc(N2CCOCC2)c(OCC)cc1NCC(=O)N1CCN(Cc2ccccc2)CC1,-8%,.,?,.,1%,2%,-3%,?
CC(=O)c1ccc(NC(=O)CCc2nnc3ccc(N4CCCC4)nn23)cc1,6%,.,.,.,1%,9%,2%,.
O=C(CN1CC=C(c2ccccc2)CC1)Nc1cc(Cl)ccc1Cl,-23%,15%,2%,-2.4%,3%,-17%,-15%,5%
O=C(Nc1ccccc1C(=O)N1CCCCCC1)c1ccccc1,2%,.,-4%[46.1 µM],.,0%,-12%,2%,-2%[46.1 µM]
COc1cccc(OCC(O)CO)c1 (stereo not given),-4%,-1%,8%,3.4%,-3%,-11%,-2%,-2%
C/C(=N\Nc1nc2ccccc2s1)c1ccc2c(c1)OCO2,6%,6%,?,-7.0%,-3%,26%,14%,-9%
CCCCn1c(N)c(N(CCOC)C(=O)COC(=O)COc2cc(C)c(Cl)cc2C(C)C)c(=O)[nH]c1=O,0%,.,-24%,.,3%,?,.,-18%[46.1 µM]
Cc1[nH]nc(SCC(=O)NCCc2ccccc2)c1[N+](=O)[O-],6%,.,.,.,-1%,3%,-7%,.
NC(=O)c1ccccc1NC(=O)CSC1=NCCS1,0%,.,.,.,?,-4%,22%,.
O=C(NCc1ccco1)C(c1ccccc1)N(C(=O)Cc1cccs1)c1ccccc1F (stereo not given),0%,6%,-11%,-0.7%,-3%,12%,18%,?
COc1ccc2c(c1OC)C(=O)N1C2SC[C@H]1C(=O)NCCC(C)C (stereo not given in full),14%,.,.,.,0%,-22%,6%,.
CCN(CC)C(=O)C1CCCN(Cc2cccc(Oc3ccccc3)c2)C1 (stereo not given),-10%,.,.,.,1%,-25%,-2%,.
Nn1c(SCc2ccc(Br)cc2)nnc1-c1cccnc1,-1%,.,.,.,0%,-4%,0%,.
O=C(NCc1ccccc1F)C1CCC(=O)N(Cc2ccc(Cl)cc2)C1 (stereo not given),-10%,.,15%[46.1 µM],.,3%,24%,1%,?
CN1CCc2c(n(CC(O)CNCc3ccccc3)c3ccccc23)C1=O (stereo not given),-4%,.,.,.,-1%,-21%,-15%,.
CC(C)CNc1nc(N)c([N+](=O)[O-])c(NCc2ccccc2)n1,2%,.,-3%,.,0%,-12%,-3%,-24%
ON=C1c2ccccc2-c2ccc(Br)cc21,-2%,.,7%,.,.,7%,.,27%
Cc1cc(NC(=O)c2ccc3c(c2)C(=O)N(C)C3=O)no1,10%,10%,2%,1.7%,12%,47%[activator],-4%,7%
O=C1CN(C(=O)Cn2ncc(Cl)c(Cl)c2=O)c2ccccc2N1,6%,.,?,.,-7%,?,.,?
C=CCOC(=O)C1=C(C)NC(=S)NC1c1cccs1 (stereo not given),-2%,-4%,?,-2.1%,9%,-13%,21%,?
O=c1c2ccccc2nc2n1C(CSc1ccc(F)cc1)CN2 (stereo not given),-3%,-4%,4%,3.3%,1%,-21%,10%,18%[46.1 µM]
N#Cc1c(N)n(-c2ccccc2N)c2nc3ccccc3nc12,14%,.,-14%[46.1 µM],.,3%,-25%,3%,0%[46.1 µM]
CN(C(=O)COC(=O)C1CCN(S(=O)(=O)c2c(Cl)cccc2Cl)CC1)c1ccccc1,2%,.,-1%,.,-1%,-25%,.,-26%[46.1 µM]
CN(C(=O)CSc1nnc(-c2ccc([N+](=O)[O-])cc2)o1)c1ccccc1,.,5%,2%[46.1 µM],0.0%,.,-5%,.,0%[46.1 µM]
CCN(CC(=O)Nc1c(F)cccc1F)C(=O)C1=COCCO1,-1%,.,1%,.,.,-2%,.,-4%
COc1ccc(-c2ccc(S(=O)(=O)N3CCOCC3)cc2)cc1,2%,?,-9%,2.7%,1%,-12%,3%,20%
O=C(OCc1nnc(-c2ccc(Cl)cc2)o1)c1ccc(O)cc1,-4%,.,1%,.,-1%,37%[activator],.,?
COc1ccc(Cl)cc1NC(=O)NCC1CCN(Cc2cc(C)ccc2C)CC1,3%,.,.,.,1%,?,-6%,.
CC1(C)CC(=O)C2(CC3=C(CC(C)(C)CC3=O)O2)C(=O)C1,9%,-1%,-2%,2.3%,8%,11%,2%,8%
COc1ccc(/C=C/C(=O)OCC(=O)N2CC(=O)Nc3ccccc32)cc1,3%,-15%,-10%,-3.3%,-9%,0%,-9%,-25%
Clc1cccc(Nc2nc(-c3cccnc3)cs2)c1,3%,.,.,.,-7%,-2%,-53%,.
# (further entries)
SMILES,RE007 growth inh,Cruzain inh noDet,LASV entry inh,Cruzain Triton,SARS PLpro yeast,StopGo reporter,NS1 function inh,MARV entry inh
COC(CNC(=O)CC1C(=O)N(Cc2ccccc2)C(C)c2nc3ccccc3n21)OC (stereo not given),-9%,.,.,.,1%,-13%,.,-3%
COc1cc(/C=C/C(=O)Nc2ccc(N3CCCCC3)c(S(=O)(=O)Nc3ccccc3Cl)c2)cc(OC)c1OC,2%,13%,?,-2.0%,5%,0%,22%,-2%
Nc1c(C(=O)NC2CCCCC2)c2nc3ccccc3nc2n1/N=C/c1ccco1,.,?,.,0.2%,-5%,.,-2%,1%
COc1cccc(Oc2cc(Cl)nc(N)n2)c1,6%,.,?,.,-2%,0%,-2%,-2%[46.1 µM]
CC(NC(=S)NCCCN1CCOCC1)C12CC3CC(CC(C3)C1)C2 (stereo not given),-2%,.,-6%[46.1 µM],.,-3%,-14%,.,?
CCn1ccnc1CN(C)Cc1nc(-c2ccc3c(c2)OCO3)no1,-8%,.,16%[46.1 µM],.,1%,7%,-3%,?
CC(C)NC(=O)c1onc(CSc2ccccc2)c1C(=O)O,-1%,4%,.,1.2%,1%,0%,0%,.
